# High-throughput results deposited in PubChem by National Center for Advancing Translational Sciences (NCATS).
# RE007 growth inh = less growth of the S. pombe RE007 Vpr strain. S. pombe RE007 Vpr strain, BacTiter-Glo ATP luminescence, 24 h; control for the full effect not named in the record. Potency, µM (titrated, usually from 92.2 µM), for inactives: top-dose activity change, negative = less growth. 360,000 compounds, 0.21% hits; active = well fitted falling curve with a large enough effect; inconclusive = small, poorly fitted or top-dose-only effect; inactive = no such curve, though single readings can be large or run the other way;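 note: % is set by controls: 0 for no effect and ±100 for the full control effect; nearly all actives have a fitted effect of over 50% in size; the assay follows cell death caused by Vpr and the record does not say whether a fall means rescue or toxicity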
#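 Fission yeast RE007 carrying one integrated HIV-1 vpr copy, seeded at OD 0.01 in PMG+AL medium with 23 nL pinned compound. Grown 24 h at 30 degrees; viability read by BacTiter-Glo luminescence after 5 min.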
# MARV entry inh = inhibitors of Marburg virus binding or cell entry; Potency, µM (highest dose often 37.8 µM), for inactives: at the highest dose activity change, negative = inhibition, usual class: inhibitors; AID 540276; 300,000 compounds, 1.8% hits; Marburg virus pseudotyped entry inhibition, cell reporter; control for the full effect not named in the record; about a third of the inactives were read at about 46 µM; active = well fitted inhibition curve with a large enough effect; inconclusive = small, poorly fitted or top-dose-only effect, or effect the other way; inactive = flat fitted curve, though single readings scatter; tested in HEK293 cells; about a fifth of its hits are not listed in these tables; note: % is set by controls: 0 for no effect and ±100 for the full control effect; luciferase read-out
# Lassa entry inh = blocks Lassa virus binding to or entry into cells; Potency, µM (highest dose often 37.9 µM), for the others: at the highest dose activity change, negative = inhibition, hits mostly inhibitors; 300,000 compounds, 1.2% hits; Lassa virus pseudotype entry inhibition, cell reporter; control for the full effect not named in the record; AID 540256; active means well fitted inhibition curve with a large enough effect; inconclusive means small, poorly fitted or top-dose-only effect, or effect the other way; inactive means flat fitted curve, though single readings scatter; tested in HEK293 cells; note: % is set by controls: 0 for no effect and ±100 for the full control effect; nearly all actives have a fitted effect of over 50% in size; luciferase read-out
# StopGo reporter = FMDV 2A StopGo reporter, luciferase signal; human cells with a luciferase reporter of 2A StopGo recoding; control for the full effect not named in the record; 410,000 compounds, 1.2% hits; Potency, µM (titrated, usually from 57.9 µM), for inactives: at the highest dose signal change, negative = less light; active = well fitted falling curve with a large enough effect; inconclusive = small, poorly fitted or top-dose-only effect; inactive = no such curve, though single readings can be large or run the other way; tested in HEK293T cells; note: % is set by controls: 0 for no effect and ±100 for the full control effect; nearly all actives have a fitted effect of over 45% in size; luciferase light after 4 h
# Cruzain inh noDet = inhibitors of Trypanosoma cruzi cruzain without detergent. P25779. purified cruzain, Z-FR-AMC fluorescence, no detergent. Potency, µM, for the others: max response, negative = inhibition, usual class: inhibitors. 200,000 compounds, 2.3% hits. AID 1476;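 note: plate controls were enzyme without inhibitor for no effect and buffer without enzyme for full effect; nearly all actives have a fitted effect of over 40% in size; top concentration of the series not given in the record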
# Target sequence (P25779 123-467 limits assumed): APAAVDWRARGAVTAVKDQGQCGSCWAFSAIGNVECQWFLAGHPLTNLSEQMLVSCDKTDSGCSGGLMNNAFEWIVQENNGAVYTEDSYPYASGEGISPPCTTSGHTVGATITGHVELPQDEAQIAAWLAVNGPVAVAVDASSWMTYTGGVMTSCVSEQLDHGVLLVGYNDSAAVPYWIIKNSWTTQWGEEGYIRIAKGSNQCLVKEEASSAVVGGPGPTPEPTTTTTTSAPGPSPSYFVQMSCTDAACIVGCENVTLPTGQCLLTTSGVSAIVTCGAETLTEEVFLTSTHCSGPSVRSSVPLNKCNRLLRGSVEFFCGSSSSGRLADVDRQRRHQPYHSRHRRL
#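 Purified cruzain at 1.5 nM, pre-incubated 15 min with compound at room temperature in 100 mM sodium acetate pH 5.5, 5 mM DTT, 0.00005% Triton X-100. Reaction started with 2 uM Z-FR-AMC; AMC fluorescence increase over 60 s gives rate.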
# SARS PLpro yeast = SARS-CoV PLP inhibition in yeast; 330,000 compounds, 0.19% hits; S. cerevisiae expressing SARS-CoV PLpro, growth rescue; control for the full effect not named in the record; Potency, µM (series often up to 32.9 µM), for the others: at the highest dose activity, positive = growth rescue; active means well fitted rising curve with a large enough effect; inconclusive means small, poorly fitted or top-dose-only effect; inactive means no such curve, though single readings can be large or run the other way; note: 0% is about no effect; nearly all actives have a fitted effect of over 55% in size; growth read by luminescence after 48 h
# NS1 inh = inhibitors of influenza NS1 protein function; AID 2326; Potency, µM (series often up to 46.1 µM), for inactives: top-dose activity, positive = more growth; 270,000 compounds, 0.4% hits; S. cerevisiae slowed by influenza A NS1, growth recovery by OD600; active means well fitted rising curve with a large enough effect; inconclusive means small, poorly fitted or top-dose-only effect; inactive means no such curve, though single readings can be large or run the other way; note: nearly all actives have a fitted effect of over 50% in size
#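 Recovery from NS1-induced slow growth read by OD600 in budding yeast switched to galactose assay medium (pH 6.0, -URA) at 1:100 dilution. Compound 23 nl per well; the matching strain lacking NS1 serves as control.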
# Cruzain Triton = inhibitors of Trypanosoma cruzi cruzain with detergent | Potency, µM, without a hit: max response, negative = inhibition, actives largely listed as inhibitors | purified cruzain, Z-FR-AMC fluorescence, 0.01% Triton | 200,000 compounds, 0.43% hits;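 note: plate controls were neutral wells for no effect and buffer without enzyme for full effect; nearly all actives have a fitted effect of over 40% in size; top concentration of the series not given in the record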
#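 Z-FR-AMC hydrolysis (2 uM substrate) by cruzain (1.5 nM) monitored kinetically at ex 360/em 450 nm after 15 min room-temperature compound exposure; 0.01% Triton X-100, pH 5.5, 5 mM DTT.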
# * hit, by the source's call; ? = inconclusive; . = not tested or not shown; [ ] = remark or other dose. Unless noted, calls come from the whole dose curve; as a rule, active = well fitted curve in the direction sought with a large enough effect; inconclusive = small, poorly fitted or top-dose-only effect, or another doubt; inactive = no such curve, though single readings can be large; an effect the other way counts as inactive or inconclusive. Potency is the fitted concentration of half-maximal effect.
no. | SMILES | RE007 growth inh | MARV entry inh | Lassa entry inh | StopGo reporter | Cruzain inh noDet | SARS PLpro yeast | NS1 inh | Cruzain Triton
1 | CC(C)Sc1cc(N2CCCC2)nc(-c2ccccc2Cl)n1 | -10% | ? | 4% | -26% | -9% | -28% | -9% | -4.8%
2 | CC(C)C1CC(CCNCc2ccc3c(c2)OCO3)(c2ccccc2)CCO1 (stereo not drawn) | -4% | 10µM* | ? | 20% | . | 2% | -1% | .
3 | COC(=O)C(O)(c1c(C)[nH]n(-c2ccccc2)c1=O)C(F)(F)F (stereo not drawn) | ? | 25% | 10% | -24% | -3% | -4% | 8.9µM* | 0.9%
4 | Cc1cccc(NC(=O)c2oc3ccccc3c2NC(=O)c2cc(=O)c3ccccc3o2)c1 | . | -4%[46.1 µM] | 5%[46.1 µM] | -14% | 6% | . | . | -2.3%
5 | O/N=C(/Cc1ccccn1)c1ccccc1 | -9% | 0%[46.1 µM] | -7% | -2% | -7% | 1% | 1% | 4.4%
6 | COc1ccccc1CNc1nc2ccc(C)cc2n2nnnc12 | . | . | 18%[46.1 µM] | -7% | -1% | . | . | -2.6%
7 | CCOC(=O)C(CC(C)C)CP(=O)(O)CNC(=O)OCc1ccccc1 (stereo not drawn) | 9% | 10% | 6% | -17% | ? | -8% | ? | 3.1%
8 | CC(=O)c1cccc(NC(=O)C(=O)Nc2cccc3ccccc23)c1 | -21% | ? | -28% | 79%[activator] | . | 1% | 0% | .
9 | CCOC(=O)c1ccc(S(=O)(=O)N2CC(=O)Nc3ccccc32)cc1 | 1% | ? | ? | 1% | . | -1% | -2% | .
10 | N#C/C(=C\Nc1ccccc1O)c1nc2ccccc2o1 | -14% | ? | ? | ? | -8% | -87% | -39% | -9.2%
11 | Cc1ccc(-c2nsc(SCC(=O)NCC3CCCO3)n2)cc1 (stereo not drawn) | 12% | -14%[46.1 µM] | 0% | -2% | . | -1% | . | .
12 | O=C(NNC(=O)c1ccc(Cl)cc1Cl)c1ccc2ccccc2c1 | -26% | 10%[46.1 µM] | 8%[46.1 µM] | -9% | . | . | . | .
13 | Cc1nn(S(=O)(=O)c2ccc(Cl)cc2)c(C)c1S(=O)(=O)N1CCCCCC1 | . | . | 5%[46.1 µM] | ? | -6% | . | . | -0.6%
14 | CCc1ccc(-c2nc(CN3CCC(C(=O)NCc4ccc(F)cc4)CC3)c(C)o2)cc1 | 25%[3.69 µM] | 21µM* | ? | -23% | 3% | -4% | 11% | 3.8%
15 | CC(C)C[C@H](NC(=O)c1nc[nH]c1C(=O)NCCCCCNC(=O)OC(C)(C)C)C(=O)OCc1ccccc1 | -1% | . | . | 0% | . | -1% | 25% | .
16 | CC(C)Cn1c(N)c(C(=O)NCC2CCCO2)c2nc3ccccc3nc21 (stereo not drawn) | 19% | ? | -27% | ? | ? | -3% | -56% | -19%
17 | Cc1ccsc1C(=O)OCC(=O)Nc1c(Cl)cccc1C(F)(F)F | 1% | -16% | -3% | -14% | -2% | 0% | 21% | -0.1%
18 | COc1ccc(C2CC(c3ccc(OC)cc3OC(C)=O)=NN2C(=O)c2ccccc2)cc1 (stereo not drawn) | 20% | ? | ? | 1% | . | -2% | 7% | .
19 | O=C(Nc1cccc(-c2cccc(Cl)c2)c1)C1CCN(Cc2ccon2)CC1 | 11% | . | . | -24% | . | 2% | 0% | .
20 | CCCCn1c(=O)c(C(=O)Nc2ccccc2)c(O)c2ccccc21 | 27% | 12%[46.1 µM] | 15% | -1% | . | 10% | 4% | .

# Rewritten screen by screen: entries from further up
12: O=C(NNC(=O)c1ccc(Cl)cc1Cl)c1ccc2ccccc2c1
13: Cc1nn(S(=O)(=O)c2ccc(Cl)cc2)c(C)c1S(=O)(=O)N1CCCCCC1
entry no.,12,13
RE007 growth inh,-26%,.
MARV entry inh,10%[46.1 µM],.
Lassa entry inh,8%[46.1 µM],5%[46.1 µM]
StopGo reporter,-9%,?
Cruzain inh noDet,.,-6%
SARS PLpro yeast,.,.
NS1 inh,.,.
Cruzain Triton,.,-0.6%

# The results go on.
# Field names – A = RE007 growth inh; B = MARV entry inh; C = Lassa entry inh; D = StopGo reporter; E = Cruzain inh noDet; F = SARS PLpro yeast; G = NS1 inh; H = Cruzain Triton
21: COc1ccc(C(=O)c2sc(Nc3ccccc3F)nc2N)cc1
  A: 61%	B: .	C: .	D: 29%	E: .	F: -5%	G: -35%	H: .

22: COCCNC(=O)c1ccc2nc(CCc3ccccc3)oc2c1
  A: .	B: .	C: ?	D: 37%[activator]	E: -2%	F: .	G: .	H: -0.7%

23: COc1ccc(F)c(CN(C)CC2CCCN(CCc3ccc(F)cc3)C2)c1 (stereo not drawn)
  A: -7%	B: 11µM*	C: ?	D: -16%	E: .	F: 1%	G: 9%	H: .

24: NC(=O)COC(=O)c1cccnc1Nc1ccccc1F
  A: 2%	B: 17%[46.1 µM]	C: 19%	D: 14%	E: .	F: -2%	G: .	H: .

25: CCn1ncc(/C=N\NC(=O)c2cc(-c3ccc(C)cc3C)nc3ccccc23)c1C
  A: 1%	B: ?	C: -28%	D: -26%	E: ?	F: -9%	G: -1%	H: -1.5%

26: COC(/C=C/Nc1ccc(C)cc1)=C(C#N)C#N
  A: 0%	B: -2%	C: 8%	D: .	E: -1%	F: 4%	G: 4%	H: 0.9%

27: O=C1SC(Cc2ccccc2)C(=O)N1c1ccccc1 (stereo not drawn)
  A: -7%	B: ?	C: -10%	D: 3%	E: .	F: 2%	G: 1%	H: .

28: COc1cccc(CNC(=O)C2CCN(S(=O)(=O)N3CCCC3)CC2)c1
  A: -7%	B: 28%	C: 5%	D: .	E: 12%	F: 5%	G: -8%	H: 7.2%

29: COc1ccccc1CNC(=O)C(C)Sc1ccsc1[N+](=O)[O-] (stereo not drawn)
  A: 2%	B: ?	C: -12%	D: -13%	E: .	F: -1%	G: .	H: .

30: Cc1ccc(OCCSc2nc3ccccc3n2CC(=O)N2CCOCC2)cc1
  A: .	B: ?	C: ?	D: 10%	E: -2%	F: .	G: .	H: 0.9%

31: O=S(=O)(Nc1nccs1)c1ccc(Nc2nnc(-c3ccccc3)c3ccccc23)cc1
  A: 25%	B: ?	C: 2%	D: -11%	E: -16%	F: 11%	G: 13%	H: -7.1%

# Record cards (already shown). Order of screens: RE007 growth inh, MARV entry inh, Lassa entry inh, StopGo reporter, Cruzain inh noDet, SARS PLpro yeast, NS1 inh, Cruzain Triton
# Results for O=S(=O)(Nc1nccs1)c1ccc(Nc2nnc(-c3ccccc3)c3ccccc23)cc1 = 25%, ?, 2%, -11%, -16%, 11%, 13%, -7.1%
# Results for CC(C)Sc1cc(N2CCCC2)nc(-c2ccccc2Cl)n1 = -10%, ?, 4%, -26%, -9%, -28%, -9%, -4.8%
# Results for O=C(NNC(=O)c1ccc(Cl)cc1Cl)c1ccc2ccccc2c1 = -26%, 10%[46.1 µM], 8%[46.1 µM], -9%, ., ., ., .
# Results for CC(C)C1CC(CCNCc2ccc3c(c2)OCO3)(c2ccccc2)CCO1 (stereo not drawn) = -4%, 10µM*, ?, 20%, ., 2%, -1%, .

# In the list so far, these contain a thiophene ring, fused or not.
# Field names – A = RE007 growth inh; B = MARV entry inh; C = Lassa entry inh; D = StopGo reporter; E = Cruzain inh noDet; F = SARS PLpro yeast; G = NS1 inh; H = Cruzain Triton
17: Cc1ccsc1C(=O)OCC(=O)Nc1c(Cl)cccc1C(F)(F)F
  A: 1%	B: -16%	C: -3%	D: -14%	E: -2%	F: 0%	G: 21%	H: -0.1%

29: COc1ccccc1CNC(=O)C(C)Sc1ccsc1[N+](=O)[O-] (stereo not drawn)
  A: 2%	B: ?	C: -12%	D: -13%	E: .	F: -1%	G: .	H: .
